# Mtb growth: Confirmatory growth inhibition assay against Mycobacterium tuberculosis H37Rv, potency (AID 1949). most inactive calls were filed without a number and no value below 0 was filed. inhibition, % at 10 µg/mL, or IC50 in µg/mL where a hit was titrated. 1.6% of 100,000 active;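 active = confirmed in a dose series; inconclusive = about 50% or more but not retested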;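 also: bacteria grown 7 days with compound before Alamar blue readout; 0% = untreated bacteria and 100% = reference antibiotic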
# * = called active by the depositor; i = inactive; ? = inconclusive. An excerpt; the hit share may differ from the screen's.
SMILES,Mtb growth
Cc1cc(Br)cc(C)c1OCC(=O)Nc1cccc(C#N)c1,i
O=C(COc1ccc(F)cc1F)NNC(=S)NC1CCCCC1,2%
Cc1ccc(SCC(=O)Nc2cccc(C(=O)O)c2C)cc1,i
CS(=O)(=O)N1CCCC(C(=O)Nc2ccccc2)C1 (stereo not given),i
CS(=O)(=O)N(CC(=O)N1CCCCCC1)C1CCCCC1,i
COc1ccccc1N1C(=O)CC(Sc2ncccc2C(=O)O)C1=O (stereo not given),i
N#C/C(=C/c1ccc(OCC(=O)O)cc1)c1ccc(F)cc1,i
Cc1cccc(NC(=S)NNC(=S)Nc2ccc(C)c(C)c2)c1,8%
Cc1ccc(C)c(OCC(=O)Nc2ccc(S(=O)(=O)N3CCC(C)CC3)cc2)c1,i
COc1ccc(N/C(=N\c2nc(C)c(Cc3ccccc3)c(=O)[nH]2)NC(=O)c2ccccc2)cc1,i
COc1ccc(C2CC(=O)Nc3c2cc(Br)c2ccccc32)cc1OC (stereo not given),0%
CSc1nc(C)cc(Oc2ccc(OCCOc3ccc(C)cc3)nn2)n1,i
COc1ccc(S(=O)(=O)NCCCc2ccccc2)cc1,8%
O=S(=O)(NCCSc1ccc(Cl)cc1)c1cccs1,i
S=C(NCc1ccc(Cl)cc1)N1CCN(c2ccc(Cl)c(Cl)c2)CC1,35%
Cc1c(Cl)cccc1NC(=O)C(=O)NCc1ccncc1,i
O=Cc1cc(=O)n2c3c(cccc13)CCC2,i
NC(=O)CN1C(=O)/C(=C2\SC(=S)N(Cc3ccccc3)C2=O)c2ccccc21,i
Cc1cc(C)cc(OCC(=O)Nc2sc3c(c2C(=O)NCC2CCCO2)CCCC3)c1 (stereo not given),i
O=S(=O)(c1ccc(Cl)c2ccccc12)N1CCc2ccccc2C1,7%
Cc1nc2nc[nH]n2c(=O)c1CCC(C)C,i
CC(=O)c1cccc(NC(=O)CN(C2CCCCC2)S(=O)(=O)c2c(C)cc(C)cc2C)c1,i
C=CCn1c(=O)n(CC=C)c2cc3n[nH]nc3cc21,i
COc1ccc(-c2cc(C(F)(F)F)nc(SCC(=O)N3CCCC3)n2)cc1OC,i
Cc1ccc(/C=C/C(=O)O)cc1S(=O)(=O)Nc1ccc(C(=O)O)cc1,i
COC(=O)c1ccc(C)c(NC(=O)Nc2ccc(OC)c(OC)c2)c1,i
O=C(NCCC1=CCCCC1)c1ccc(Br)o1,i
CCOC(=O)c1c(C)[nH]c(NC(=O)N2CCOCC2)c1C,i
COc1cccc(NC(=O)NCc2ccccc2Cl)c1,i
CCN1CCN(S(=O)(=O)c2ccc(Oc3ccccc3OC)cc2)CC1,i
C=CCn1c(SCC(=O)c2ccc(F)cc2)nc2sc3c(c2c1=O)CCC(C)C3 (stereo not given),i
COc1ccccc1CNC(=S)Nc1ccc(Br)cc1Cl,i
CCOc1ccccc1-n1c(CNCCc2ccc(OC)c(OC)c2)nc2ccccc2c1=O,i
CCc1cccc(CC)c1NC(=O)c1ccc2c(c1)C(=O)N(CCCOC)C2=O,6%
N#C/C(=C\c1ccc(-c2ccccc2)o1)C(=O)Nc1ccccc1Cl,i
Cc1ccc(S(=O)(=O)N2CCN(Cc3ccccn3)CC2)cc1,4%
O=C(c1cccc(Cl)c1)N1CCN(Cc2ccc(Br)cc2)CC1,5%
O=S(=O)(Nc1ccc(F)cc1)c1c(F)cccc1F,1%
CCOC(=O)c1ccc(NC(=O)N2CCN(Cc3ccc(Cl)cc3Cl)CC2)cc1,i
O=C(Nc1ccc(Br)cc1Cl)c1ccco1,2%
CCOC(=O)c1c(NC(=O)CSc2nnc(N)s2)sc2c1CCCC2,i
O=C(c1ccc(S(=O)(=O)N2CCOCC2)cc1)N1CCN(C(c2ccccc2)c2ccccc2)CC1,0%
O=C1CC(NCC2CCCCC2)C(=O)N1c1cccc(Cl)c1 (stereo not given),i
COc1ccc(OC)c(N2C(=O)CC(N3CCN(c4ccc(F)cc4)CC3)C2=O)c1 (stereo not given),i
COc1cc(S(=O)(=O)N2CCN(c3ccc(C)c(Cl)c3)CC2)ccc1Cl,i
COC(=O)CN(C#N)c1nc(SC)nc(N(C)C)n1,i
Cc1cc(C)cc(OCC(=O)Nc2ccccc2NC(=O)COc2cc(C)cc(C)c2)c1,i
O=C(Cc1ccccc1)Nc1cc(C(F)(F)F)ccc1N1CCCCC1,21%
COc1ccccc1N1CCN(CC(O)COCC2COc3ccccc3O2)CC1 (stereo not given),3%
O=C(Oc1ccc(Cl)cc1Br)c1ccccc1[N+](=O)[O-],2%
CCCCc1nnc(SCC(=O)NC(C)(C)C)n1C,i
O=C(Cc1ccc(Cl)cc1)N1CCN(c2ccccn2)CC1,i
CC(C)(C)NS(=O)(=O)c1ccc(NC(=O)c2cccc([N+](=O)[O-])c2)cc1,i
Cc1cccc(NC(=O)CN2C(=O)CNC2=O)c1,i
CCOC(=O)c1c(NC(=O)C2CC=CCC2C(=O)O)sc(C)c1CC (stereo not given),i
O=C(Nc1ccc(C(=O)N2CCCCC2)cc1)c1ccccc1Cl,i
COc1cc(NC(=O)c2cccc(Br)c2)c(C(=O)O)cc1OC,i
O=C(NCCc1ccccc1)c1ccc(Br)o1,3%
Cc1cc(C)cc(NC(=O)CN(c2cccc(Br)c2)S(C)(=O)=O)c1,i
CCOC(=O)c1ccc(NC(=S)NNC(=O)c2ccc(Br)s2)cc1,i

# Later entries
SMILES,Mtb growth
CCC(C(=O)Nc1ccccc1C(C)(C)C)c1ccccc1 (stereo not given),i
CC(C)CNC(=O)c1ccc(COc2cc(Cl)ccc2Cl)o1,i
CC(=O)Nc1ccc2nc(SCc3ccc(C(=O)Nc4cc(Cl)ccc4C)cc3)sc2c1,i
Oc1ccc(-c2[nH]ncc2-c2cnn(-c3ccccc3)c2)c(O)c1O,i
NC(=O)c1conc1-c1ccc(F)cc1,i
CCCOc1cccc(C(=O)Nc2ccccc2C(N)=O)c1,4%
COc1cc(NC(=O)CCN2CCN(CCO)CC2)cc(OC)c1,1%
COc1cccc(CNC(=S)Nc2ccc(Oc3ccccc3)cc2)c1,3%
CCCOC(=O)c1cc(-c2ccc(OC)cc2)nc2ccccc12,?
Cc1cc(NC(=O)Cc2cccs2)nn1CC(=O)NCc1ccco1,i
COc1ccc(C)cc1S(=O)(=O)N(C)CC(N)=O,i
CCOC(=O)c1sc(NC(=O)CSc2nccc(C)n2)c(C#N)c1C,i
CC(=O)Nc1nc(C)nc(-c2ccccc2)c1C(C)=O,i
CC(=O)Nc1ccc(C(=O)NCc2ccc3c(c2)OCO3)cc1,i
CC1CCN(c2ccccc2NC(=O)c2ccc(C#N)cc2F)CC1,i

# A second format for part of the listing above:
> CC(=O)Nc1ccc(C(=O)NCc2ccc3c(c2)OCO3)cc1
  Mtb growth: i

> COc1cccc(CNC(=S)Nc2ccc(Oc3ccccc3)cc2)c1
  Mtb growth: 3%

# Reprinted from above for reference:
SMILES,Mtb growth
COc1cc(NC(=O)c2cccc(Br)c2)c(C(=O)O)cc1OC,i
O=C(NCCc1ccccc1)c1ccc(Br)o1,3%
Cc1cc(C)cc(NC(=O)CN(c2cccc(Br)c2)S(C)(=O)=O)c1,i
CCOC(=O)c1ccc(NC(=S)NNC(=O)c2ccc(Br)s2)cc1,i
CCC(C(=O)Nc1ccccc1C(C)(C)C)c1ccccc1 (stereo not given),i
CC(C)CNC(=O)c1ccc(COc2cc(Cl)ccc2Cl)o1,i
CC(=O)Nc1ccc2nc(SCc3ccc(C(=O)Nc4cc(Cl)ccc4C)cc3)sc2c1,i
Oc1ccc(-c2[nH]ncc2-c2cnn(-c3ccccc3)c2)c(O)c1O,i
NC(=O)c1conc1-c1ccc(F)cc1,i
CCCOc1cccc(C(=O)Nc2ccccc2C(N)=O)c1,4%
COc1cc(NC(=O)CCN2CCN(CCO)CC2)cc(OC)c1,1%
COc1cccc(CNC(=S)Nc2ccc(Oc3ccccc3)cc2)c1,3%
CCCOC(=O)c1cc(-c2ccc(OC)cc2)nc2ccccc12,?
Cc1cc(NC(=O)Cc2cccs2)nn1CC(=O)NCc1ccco1,i
COc1ccc(C)cc1S(=O)(=O)N(C)CC(N)=O,i
CCOC(=O)c1sc(NC(=O)CSc2nccc(C)n2)c(C#N)c1C,i
CC(=O)Nc1nc(C)nc(-c2ccccc2)c1C(C)=O,i
CC(=O)Nc1ccc(C(=O)NCc2ccc3c(c2)OCO3)cc1,i
CC1CCN(c2ccccc2NC(=O)c2ccc(C#N)cc2F)CC1,i

# Continued.
SMILES,Mtb growth
CCc1c(C)sc(NC(=O)c2ccc(Br)cc2)c1C(N)=O,21%
O=C1CCCN1CCC1CCN(C(=S)Nc2ccc(F)cc2)CC1,i
Cc1ccc(-n2c(C)c(C=O)c(C=O)c2C)cc1,17%
Cn1c(SCC(=O)Nc2ccccc2F)nnc1-c1ccc(Cl)cc1Cl,i
Cc1ccc(N(C(=O)CC(C)C)C2C=CS(=O)(=O)C2)cc1 (stereo not given),i
COc1ccc(C(=O)Nc2ccc3c(c2)C(=O)N(CCC(=O)O)C3=O)cc1,i
Cc1ccc(Cl)cc1NC(=O)CSc1ccccn1,i
COC(=O)c1cc(Cl)c(NC(=O)c2cc(OC)c(OC)c(OC)c2)cc1OC,i
CCOC(=O)c1c(C)[nH]c(NC(=O)NCc2ccccc2)c1C,1%
Cc1ccc(C(C)C)cc1OCCN1CCCC1,i
CCOc1ccc(C(=O)NC(=S)Nc2ccc(N3CCN(C)CC3)c(Cl)c2)cc1Cl,i
Oc1ccccc1-c1n[nH]c(/C=C/c2ccccc2Cl)n1,6.5µg/mL*
COc1ccc(-c2csc(Nc3ccccn3)n2)cc1,40%
COc1cccc(-n2c(=O)c3c(n4cnnc24)-c2ccccc2CC32CCCCC2)c1,i
O=C1CSC(c2ccc3c(c2)OCO3)N1CCN1CCCCC1 (stereo not given),i
CC1(C)NC(=O)N(CCCSc2ccc(Cl)cc2)C1=O,4%
CC(C)(C)NS(=O)(=O)c1ccc(NC(=O)C(C)(C)C)cc1,i
COc1c(F)c(F)c(C(=O)Nc2cc3nn(-c4ccccc4)nc3cc2Cl)c(F)c1F,2%
CCOC(=O)c1c(NC(C)=O)sc2cc(Br)ccc12,i
COc1ccc(C(=O)NCc2nnc(SCC(=O)Nc3cccc(C(=O)O)c3)n2C)cc1OC,i
O=c1c2ccccc2nc(/C=C\c2cccc([N+](=O)[O-])c2)n1-c1ccc(O)cc1,i
Cc1cccc(NC(=O)CSc2nc(-c3ccccc3)c(-c3ccccc3)[nH]2)c1C,5%
Cc1occc1C(=O)Nc1ccc(NC(=O)c2ccoc2C)cc1,i
CCOc1ccccc1NC(=O)C(=O)NCCC1CCCCC1,0%
COc1cc(Br)ccc1NC(=O)c1cccc2c1-c1ccccc1C2=O,i
O=C(Cc1ccccc1[N+](=O)[O-])Nc1ccccc1Br,i
COc1c(C)cccc1C(=O)NC(=S)Nc1ccccc1N1CCCCC1,10%
Cc1oc2cc(Br)c(OC(=O)c3ccco3)cc2c1C(=O)OC(C)C,10%
COc1ccc(C2CC(c3ccccc3C)n3nc(N)nc3N2)cc1 (stereo not given),4%
CC(Oc1cccc(Cl)c1)C(=O)Nc1nc(-c2ccc(F)cc2)cs1 (stereo not given),i
CC(C)C(=O)Nc1ccc(C(=O)NCc2ccc3c(c2)OCO3)cc1,i
COc1ccc(S(=O)(=O)N2CCC(C(N)=O)CC2)cc1OC,i
O=C(Nc1ccccn1)C12CC3CCC(CC(C3)C1)C2,i
Cc1ccc(S(=O)(=O)N(CC(=O)Nc2cccc(F)c2)c2ccc(Br)cc2)cc1,i
Cc1cc(C(=O)N2CCCCC2)c2cc(F)ccc2n1,i
Cc1ccc(C)c(NC(=O)c2ccc(CN3CCOCC3)cc2)c1,i
O=C(Nc1ccc2oc(=O)ccc2c1)c1cc(I)ccc1Cl,i
Cc1nnc(NC(=O)c2cc(-c3ccccc3C)nc3ccccc23)s1,i
CCOC(=O)c1c(NC(=O)c2ccc(OC)cc2OC)sc(C)c1CC,11%
CCc1ccc(C(=O)NC(=S)Nc2ccc(I)cn2)cc1,i
O=C1CC(C(=O)Nc2ncccn2)C(c2ccccc2)O1 (stereo not given),i
O=C(COc1ccc(Cl)cc1Cl)OCc1ccc(Br)cc1,?
Cn1nc([N+](=O)[O-])nc1Oc1ccc2ccc(=O)oc2c1,15%
C=CCNC(=S)Nc1sc2c(c1C(=O)OCC)CC(C(C)C)OC2 (stereo not given),i
Cc1ccc(-c2nnc(SCC(=O)Nc3cc(Cl)cc(Cl)c3)n2C)cc1,2%
O=C(Nc1ccccc1C(=O)NCC1CCCO1)c1cccc(I)c1 (stereo not given),i
O=C(NC12CC3CC(CC(C3)C1)C2)c1ccc(N2CCN(C(=O)c3ccc(F)cc3)CC2)c([N+](=O)[O-])c1,50%
CN(C)S(=O)(=O)c1cccc(C(=O)NCCc2ccccc2)c1,i
Cc1cc(C)nc(SCC(=O)Nc2cccc3ncccc23)n1,i
CC(C)NC(=O)c1ccccc1NC(=O)CN(c1ccccc1Cl)S(C)(=O)=O,2%
CCCc1cc(C(=O)OCC)c(NC(=O)c2cccnc2)s1,i
COCCCN1C(=O)c2ccc(C(=O)Nc3ccc(Br)cc3)cc2C1=O,i
COc1ccc(CCNC(=O)C(Cc2ccccc2)N2C(=O)c3ccccc3C2=O)cc1OC (stereo not given),1%
O=C(c1ccco1)N(Cc1ccco1)C1CCS(=O)(=O)C1 (stereo not given),i
COCCNCCOc1ccc2ccccc2c1Br,i
CCOc1ccc(Cl)cc1S(=O)(=O)n1nc(C)cc1C,i
Cc1cc(N2C(=O)C3CCC(c4ccccc4)CC3C2=O)no1 (stereo not given),i
CCCN(CCC)S(=O)(=O)c1ccc(NS(C)(=O)=O)cc1,i
Cc1ccc(C(C)C)c(OCCSc2ncnc3nc[nH]c23)c1,1%
CCOC(=O)Cn1cnc(-c2ccc([N+](=O)[O-])cc2)c1,i

# (next part)
SMILES,Mtb growth
CC(C(=O)OCc1cccc(Br)c1)N1C(=O)C(=O)c2ccccc21 (stereo not given),i
COc1ccc(OCCN2CCCc3ccccc32)cc1,i
O=Cc1cc(Cl)ccc1OC(=O)c1ccccc1,i
O=C(Nc1ccon1)c1cc2ccccc2oc1=O,2%
O=S1(=O)CC(O)C(N2CCC(c3ccccc3)CC2)C1 (stereo not given),?
Cc1cc(C)cc(OCC(=O)Nc2c(C)cc(C)cc2Cl)c1,27%
Cc1ccc(S(=O)(=O)Nc2ccc(NS(C)(=O)=O)cc2)cc1,i
CC(C)c1nnc(NC(=O)c2cccc(I)c2)s1,i

# Screens as filed in PubChem BioAssay.
